Screens deposited in PubChem by National Center for Advancing Translational Sciences (NCATS).
NPR1 antag: Natriuretic polypeptide receptor (hNpr1) antagonism - Primary qHTS; HEK293 hNpr1 GloSensor cGMP, ANP-stimulated luminescence; Potency, µM (top dose mostly 46.3 µM), without a hit: top-dose activity change, negative = inhibition, actives largely listed as inhibitors; 76,000 tested, 1.6% active; active = well fitted inhibition curve with a large enough effect; inconclusive = small, poorly fitted or top-dose-only effect; inactive = no such curve, though single readings can be large or run the other way;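 note: nearly all actives have a fitted effect of over 60% in size; nearly all hits also lower the signal before the agonist is added; a reference antagonist and vehicle were the controls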
Target sequence (P16066 whole entry, looked up): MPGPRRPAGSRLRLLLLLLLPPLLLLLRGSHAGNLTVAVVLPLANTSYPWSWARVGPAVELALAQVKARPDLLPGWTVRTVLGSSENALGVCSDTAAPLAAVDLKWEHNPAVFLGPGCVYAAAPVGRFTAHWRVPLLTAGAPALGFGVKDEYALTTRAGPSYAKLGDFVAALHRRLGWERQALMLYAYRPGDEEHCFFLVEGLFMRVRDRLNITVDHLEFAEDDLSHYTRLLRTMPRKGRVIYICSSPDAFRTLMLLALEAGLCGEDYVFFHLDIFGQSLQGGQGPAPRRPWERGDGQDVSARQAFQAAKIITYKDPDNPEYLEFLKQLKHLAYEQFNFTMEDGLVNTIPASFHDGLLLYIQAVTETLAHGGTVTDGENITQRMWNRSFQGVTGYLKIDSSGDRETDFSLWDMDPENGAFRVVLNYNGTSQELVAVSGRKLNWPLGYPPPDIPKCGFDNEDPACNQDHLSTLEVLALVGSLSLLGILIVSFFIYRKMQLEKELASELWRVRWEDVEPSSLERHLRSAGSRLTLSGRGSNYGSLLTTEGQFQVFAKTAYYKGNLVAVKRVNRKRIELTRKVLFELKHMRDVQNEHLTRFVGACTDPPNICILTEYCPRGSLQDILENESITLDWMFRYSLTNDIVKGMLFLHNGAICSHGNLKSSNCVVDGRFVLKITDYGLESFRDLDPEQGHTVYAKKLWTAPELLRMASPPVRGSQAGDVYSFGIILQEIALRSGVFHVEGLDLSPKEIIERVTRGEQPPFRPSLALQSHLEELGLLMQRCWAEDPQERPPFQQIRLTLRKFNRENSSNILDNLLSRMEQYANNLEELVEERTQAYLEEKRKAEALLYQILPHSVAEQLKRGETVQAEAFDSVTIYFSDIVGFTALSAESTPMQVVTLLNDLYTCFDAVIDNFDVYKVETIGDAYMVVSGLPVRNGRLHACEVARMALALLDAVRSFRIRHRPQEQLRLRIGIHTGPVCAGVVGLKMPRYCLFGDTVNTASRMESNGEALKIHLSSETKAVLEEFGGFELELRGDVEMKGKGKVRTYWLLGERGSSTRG
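Compound pre-incubated 30 min at room temperature on GloSensor-loaded HEK293 cells stably carrying hNpr1 and the pGS-40F cGMP biosensor. Stimulation uses hNppA at 0.1 nM final; luminescence is taken at baseline and 20 min post-agonist.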
The depositor's hits bear a star; ? = inconclusive; [ ] = remark or other dose. % is set by controls: 0 for no effect and ±100 for the full control effect; potency is the fitted concentration of half-maximal effect.

| Structure | NPR1 antag |
| --- | --- |
| COCCN1CC2(CCCN(C(=O)NCCc3cccs3)C2)CCC1=O (configuration not stated) | 6% |
| CC1CCN(CC2CCCNCC2)CC1 (configuration not stated) | -5% |
| CN1CC(=O)N(c2ccccc2F)Cc2c(NCc3ccccc3)ncnc21 | 2% |
| Cc1cnn(CCC(=O)N2CCCC(c3nnc(Cn4ccnc4)n3C)C2)c1 (configuration not stated) | 6% |
| OCC1(CN2CCCC2)CCN(Cc2ccc(Cl)c(F)c2)CC1 | 6% |
| Cc1ccc2ccccc2c1CN1CCC2(CCCO2)CCC1=O (configuration not stated) | 2% |
| Cn1cnc(S(=O)(=O)N2CCC3(CC2)N(CC2CC2)C(=O)CS3=O)c1 (configuration not stated) | 3% |
| CCCNC(=O)N(C1CCOCC1)C1CCN(C(=O)c2ccc(CC)cc2)CC1 | 4% |
| O=C(CCNc1cnc2cnccn12)NCc1ccc(F)c(Cl)c1 | -13% |
| Cc1ccccc1-n1nc(C)c(CCC(=O)NC(C)C)c1Oc1ccccc1 | -12% |
| O=C(Nc1cccc(-c2nnc3n2CCCC3)c1)c1nccc2ccccc12 | 4% |
| Cc1cc(C2CCCN2C(=O)c2ccc(F)cc2F)on1 (configuration not stated) | 1% |
| Cn1cc(CN2Cc3ccc(C(=O)Nc4nccs4)cc3OCC2=O)cn1 | 1%[70.6 µM] |
| N#Cc1ccc(CN2CCC3(CC2)COCCN3C(=O)OCc2ccccc2)cc1 | -28%[70.6 µM] |
| COc1cc(Cl)c(C)cc1NC(=O)c1cc2n(n1)CC(c1ccc(Cl)cc1)OC2 (configuration not stated) | -2% |
| C=CCOC(=O)C1=C(C)N=C2SC=C(CC(=O)N3CCCC3)N2C1c1cc(OC)cc(OC)c1 (configuration not stated) | 10µM* |
| Cc1nc(NC2CCCC2)ncc1C(=O)O | 2% |
| O=C(c1ccccc1)N(C1CC1)C1CCOC2(CCNCC2)C1 (configuration not stated) | -2% |
| O=C1NCCCCCCN(S(=O)(=O)c2ccccc2)[C@H]2CCCC[C@@H]12 | 1% |
| O=C1NCCCCCCN(Cc2ccncc2)[C@@H]2CN(Cc3ccncc3F)CC[C@H]12 | 1% |
| COC[C@H]1CCCN1C(=O)C[C@@H]1O[C@H](CNS(C)(=O)=O)[C@@H](O)[C@H]1O | -5%[70.6 µM] |
| CCN(Cc1ccco1)C(=O)[C@@H]1CN(c2ncccn2)C[C@H]1COC | -16% |
| CCCc1noc(-c2cn(C3CCN(C(=O)c4ccc5c(c4)OCO5)CC3)nn2)n1 | -22% |
| COC(=O)[C@@H]1Cc2c([nH]c3ccccc23)[C@H]2C[C@@H](NC(C)C)C[C@@H](c3ccccc3)N21 | -15%[70.6 µM] |
| CS(=O)(=O)c1ccc(CN2C[C@@H]3OCC(=O)N(c4ccccc4)[C@@H]3C2)cc1 | -4%[70.6 µM] |
| COCCn1c(=O)n([C@H]2CCCN(C(=O)COc3ccccc3)C2)c2ncccc21 | 2% |
| CCNC(=O)N(C1CC1)C1CCOC2(CCN(C(=O)COc3ccc(C)cc3)CC2)C1 (configuration not stated) | 4% |
| CC(C)c1nc(C2Cc3ccccc3N2S(=O)(=O)c2cn(C)cn2)no1 (configuration not stated) | 4% |
| C=CCN1CCN(CC2(O)CCCN(Cc3cc(OC)ccc3F)C2=O)CC1 (configuration not stated) | -1% |
| COc1ccc(Nc2cc3c(cn2)CN(C)CCN3C)cc1OC | -4%[70.6 µM] |
| CC(CCC(=O)N1CCn2nc(Cc3ccccc3)cc2C1)N1CCCC1 (configuration not stated) | -3% |
| Cn1cnc(C(=O)N2CCC(Cc3ccc(C(N)=O)cc3)CC2)c1 | -6% |
| CC1=C[C@@H](CN2CCC(O)CC2)[C@H](C(C)C)C[C@H]1Cc1nnc(-c2ccc([N+](=O)[O-])cc2)o1 | -2% |
| CCOCC(=O)N1CCCC(c2nc(-c3cccnc3)no2)CCNC(=O)CC1 (configuration not stated) | 6% |
| N#Cc1ccc(C(=O)N2CCC3(CC2)NC(=O)N(Cc2ccc(F)cc2)C3=O)cc1 | ? |
| O[C@H]1[C@H](NCc2cnc3ccccc3c2)[C@H]2CO[C@H](O2)[C@@H]1N1CCCCC1 | -3%[70.6 µM] |
| CCn1cc(C(=O)N2C[C@@H](CO)[C@H](c3ccncc3)C2)cn1 | 0% |
| O=C(Cc1ccccc1Cl)N1CC(c2nc(Cc3ccccc3)no2)C1 | 2% |
| Cc1ccc(C)c(CC(=O)NCc2cc3n(n2)CCCN(CC(C)C)C3)c1 | 1% |
| COc1cccc(N2CCN(C(=O)c3noc(-c4ccc(C)cc4)n3)CC2)c1 | -8% |

Reformatted with the structure last: part of the list above
| NPR1 antag | structure |
| --- | --- |
| -5%[70.6 µM] | COC[C@H]1CCCN1C(=O)C[C@@H]1O[C@H](CNS(C)(=O)=O)[C@@H](O)[C@H]1O |
| -4%[70.6 µM] | CS(=O)(=O)c1ccc(CN2C[C@@H]3OCC(=O)N(c4ccccc4)[C@@H]3C2)cc1 |
| -3%[70.6 µM] | O[C@H]1[C@H](NCc2cnc3ccccc3c2)[C@H]2CO[C@H](O2)[C@@H]1N1CCCCC1 |
| 6% | CCOCC(=O)N1CCCC(c2nc(-c3cccnc3)no2)CCNC(=O)CC1 (configuration not stated) |
| 4% | CCNC(=O)N(C1CC1)C1CCOC2(CCN(C(=O)COc3ccc(C)cc3)CC2)C1 (configuration not stated) |

Next part
| Structure | NPR1 antag |
| --- | --- |
| Cc1ccccc1Oc1c(CCC(=O)NC2CC2)c(C)nn1-c1ccc(F)cc1 | -23% |
| CC1(COc2ccccc2)COc2ccc(C(=O)NCCc3cnc[nH]3)cc2N1 (configuration not stated) | -8%[70.6 µM] |
| Cc1ccc(C(=O)N[C@@H](Cc2ccccc2)C(N)=O)cc1N1CCNC1=O | 9% |
| CC(C)c1nc2c(c(-c3ccc(O)cc3)n1)CN([S+](=O)([O-])c1ccccc1)CC2 | -1% |
| COc1ccc(C(=O)N2C[C@@H](Oc3ccccc3)C[C@H]2C(=O)N2CCCC2)c(OC)c1 | 1% |
| Cc1nn2c(c1-c1cccnc1N1CCOCC1)N(C(=O)c1cc3ccccc3n1C)CCC2 | 5% |
| CN1C[C@@H](NC(=O)C2CC2)C[C@H]1c1nc(-c2ccc3ccccc3c2)no1 | -11%[70.6 µM] |
| CC(C)Oc1cccc(-c2cn(C)c(=O)n3cc(CN4CCOCC4)nc23)c1 | 4%[70.6 µM] |
| CCOC(=O)N1CCC(N2CCN(Cc3ccccc3F)C(CCO)C2)CC1 (configuration not stated) | -3% |
| Cn1ncc(N2CCOC(CCNC3CCC4(CCNCC4)CC3)C2)cc1=O (configuration not stated) | -1% |
| COc1ccc(CN2CCc3nc(C(=O)Nc4ccccc4)oc3CC2)cc1 | 25µM* |
| O=C(O)C1CCc2sc(C(=O)N3CCOCC3)cc2C1 (configuration not stated) | -1% |
| O=C(CCc1nc2ccccc2s1)NCCc1noc(-c2ccncc2)n1 | 0% |
| Cn1cnnc1-c1nn(C)c2c1CN(C(=O)c1n[nH]c3c1CCCCCC3)CC2 | 3% |
| CC(=O)Nc1ccc(C2(C(=O)NCc3ccc4c(c3)OCO4)CCC2)cc1 | 1% |
| CN(Cc1ccccc1)C(=O)C1=NO[C@@H]2CN(Cc3ccc(F)cc3)C[C@H]12 | 1%[70.6 µM] |
| COc1ccc(C(=O)NCc2nnc3ccc(-c4ccc(C)c(C)c4)nn23)cc1F | -27% |
| CNC(=O)[C@@H]1CN(C(=O)c2cc(C)on2)C[C@H]1c1nc(COC)no1 | 1% |
| CNCCNC(=O)C1CCN(c2nc(-c3ccccc3)nc3c2CCC3)CC1 | 1% |
| Cc1c(NC(=O)CCc2cc3n(n2)CCNC3)c(C)n(C)c(=O)c1C(N)=O | 11% |
| COc1cccc(-c2noc(CC3CCN(C(=O)CCc4ccccc4)CC3)n2)c1 | 13µM* |
| COC[C@H]1NC(=O)CC[C@H]1C(=O)NCCC1=CCCCC1 | 7% |
| COc1cc(-c2nc(-c3c(C)noc3C)cc3[nH]c(C)cc23)ccn1 | -17%[70.6 µM] |
| O=C(C[C@H]1NC(=O)c2ccccc2NC1=O)Nc1ccccc1Cl | 2% |
| COc1cccc(CN2CC[C@H]3COC(=O)N3c3cc(C)ccc3C2)c1 | 3%[70.6 µM] |
| CC#CCn1cc2c3c(cccc31)[C@H](CC(C)C)N[C@H](C(=O)NCc1ccccc1OC)C2 | 3% |
| CCCNS(=O)(=O)c1ccc(C(=O)NCc2cc3n(n2)CCNC3)cc1 | 1% |
| O=C(CCn1cccn1)NC1CCCc2nc(-c3ccccc3)ncc21 (configuration not stated) | 7% |
| CN1Cc2ccc(C(=O)Nc3ccc(OC(F)(F)F)cc3)cc2OCC1=O | ? |
| COc1ccc(NC(=O)N2CCc3c(C(=O)NCc4ccncc4)cccc32)cc1 | 11µM* |
| O=C1NCCN2CC3(CCN(C(=O)NC4CCCCC4)CC3)CC12 (configuration not stated) | 0% |
| Cc1ccccc1C(=O)N1CCc2nc3cc[nH]n3c(=O)c2C1 | 2% |
| COc1ccc(C(=O)N2CCOC(CCCC(C)C)C2)o1 (configuration not stated) | 0% |
| Cc1noc2c(-c3cnn(C)c3)cc(-c3cccs3)nc12 | -5%[70.6 µM] |
| COc1ccc(C2Cn3nnc(C(=O)N4CCN(C(=O)Cc5cccc(F)c5)CC4)c3CO2)cc1 (configuration not stated) | ? |
| COc1ccc(-c2cnc3[nH]cc(CC(=O)NC4CCC(O)CC4)c3c2)cc1 (configuration not stated) | -8%[70.6 µM] |
| Cn1ccnc1CN1C(=O)CO[C@H]2CN(C(=O)NCc3ccccc3)C[C@H]21 | -7%[70.6 µM] |
| COc1cccc(NC(=O)N[C@H]2[C@H](O)[C@@H](N3CCC(Cc4ccccc4)CC3)[C@@H]3OC[C@H]2O3)c1 | 2% |
| CC(C)CC(=O)NCCC1CCN(C(=O)Nc2cc(F)ccc2F)CC1 | 4% |
| COCCOCc1nc(C2CCCCN2C(=O)Nc2ccc(F)cc2F)no1 (configuration not stated) | 1% |
| O=C(NC1CCCN(c2cc(-c3ccccc3)[nH]n2)C1)C1CCCC1 (configuration not stated) | -11% |
| CN(C)C(=O)N1CCC2(CCC(=O)N(CC3CCCO3)C2)CC1 (configuration not stated) | -5% |
| O=C(CN1CCOC1=O)N[C@@H]1[C@@H](Cc2ccccc2)[C@H]2OCC[C@@H]12 | -14% |
| CN(C)[C@@H]1CN(C(=O)c2cccc(C#N)c2)C[C@H]1CO | 3% |
| Cc1ccc(NC(=O)N2CCc3c(C(=O)NCc4ccncc4)cccc32)cc1 | 13µM* |
| O=C(NCCCn1nccc1C1CC1)[C@H]1CNC[C@@H](C(=O)N2CCCC2)C1 | -2% |
| Cn1nc(C(=O)N2CCCN(C(=O)C3CC3)C(c3ccccc3)CC(=O)NCC2)c2ccccc21 (configuration not stated) | 0% |
| OCCCn1cnc2cc(-n3ccnc3-c3cc4n(n3)CCNC4)ccc21 | -7% |
| CCCc1ccc(CN2CC[C@@H]3[C@@H](CCC(=O)N3CCc3cnc[nH]3)C2)o1 | -21% |
| COCC(=O)Nc1ccc([C@@H](O)[C@H]2COCC(=O)N2Cc2ccccc2)cc1 | 3%[70.6 µM] |
| O=C(NC1CCN(c2cc(-c3ccccc3)[nH]n2)CC1)c1ccsc1 | -19% |
| COc1ccccc1C(=O)N1CCC(Cc2nc(-c3ccccc3)no2)CC1 | ? |
| Cc1oc(-c2cccc(Cl)c2)nc1CN1CCOCC1 | 4% |
| CN(C1CCOCC1)C1CCN(C(=O)NCCc2ccccc2)CC1 | -4% |
| O=C(NCCCn1cccn1)C1CN(S(=O)(=O)c2ccccc2)CC12CCCCC2 (configuration not stated) | 0% |
| Fc1cc(Nc2cnc3ccc(-n4ccnc4)nn23)cc(N2CCOCC2)c1 | -15%[70.6 µM] |
| CCOc1cc(=O)n2c(c1C(=O)Nc1cc(F)ccc1C)CCCC2 | 0% |
| CC(C)CN1CCN(c2cc(Cl)ncn2)C(=O)C1 | 18%[70.6 µM] |
| Cc1ccc(C)c(C(=O)NC2CCCN(c3cc(-c4ccccc4)[nH]n3)C2)c1 (configuration not stated) | 0% |
| Cn1cc(C#N)cc1-c1nc(COc2ccccc2)nn1CC(F)(F)F | 4% |

Continued:
| Structure | NPR1 antag |
| --- | --- |
| COc1cccc(C(=O)N2CCC(c3nn(-c4ccc(F)cc4)c(=O)[nH]3)CC2)c1 | 1% |
| Cc1ccc(NC(=O)Cn2ccn3nc(-c4ccccc4)c(CO)c3c2=O)cc1C | -12% |
| COCCN1CC2(CCCN(C(=O)c3ccccc3-n3cncn3)C2)CCC1=O (configuration not stated) | 3% |
| CS(=O)(=O)Nc1ccc([C@H]2OCC(=O)N(Cc3ccc(F)cc3)[C@@H]2CO)cc1 | 1%[70.6 µM] |
| CCOc1ccc(CN2C[C@@H](COC)[C@H](C(=O)N(C)C)C2)cc1 | 6% |
| COC1CN(C2CCN(C(=O)c3ccc(C)nc3)CC2)C12CCOCC2 (configuration not stated) | -1% |
| Cc1ccncc1C(=O)N1CCC2(CC1)CC(c1ccccc1)C(=O)N2C (configuration not stated) | 1% |
| O=C(Cc1cccc(Cl)c1)NC1CC(=O)N(Cc2ccc(F)cc2)C1 (configuration not stated) | 0% |
| Cc1ccc(S(=O)(=O)NC[C@H]2O[C@@H](CC(=O)N3CCOCC3)[C@H](O)[C@@H]2O)cc1 | -2%[70.6 µM] |
| COCCN1CCOc2nc(-c3cccc(OC(F)(F)F)c3)ncc2C1=O | -24%[70.6 µM] |
| COc1cccc(CC(=O)NCc2nnc3ccc(-c4ccccc4)nn23)c1 | 9% |
| CS(=O)(=O)N1CCCN(C(=O)NCCc2ccccc2)CCNC(=O)CC1c1ccccc1 (configuration not stated) | 5% |
| FC(F)(F)c1ccc(-c2noc(-c3ncn4c3COC(c3ccccc3Cl)C4)n2)cc1 (configuration not stated) | 4% |

A portion of the library; count on the stated rates, not on these rows.
